Source: PubChem BioAssay (National Center for Advancing Translational Sciences (NCATS))
SARS PLP yeast – SARS-CoV PLP inhibition in yeast. Potency, µM (top dose mostly 32.9 µM), without a hit: at the highest dose activity, positive = growth rescue. AID 485353. S. cerevisiae expressing SARS-CoV PLpro, growth rescue; control for the full effect not named in the record. hit rate 0.19% among 330,000; also: 0% is about no effect; nearly all actives have a fitted effect of over 55% in size; growth read by luminescence after 48 h
NS1 inh – blocks influenza NS1 protein function; S. cerevisiae slowed by influenza A NS1, growth recovery by OD600; Potency, µM (highest dose often 46.1 µM), inactives show at the top dose activity, positive = more growth; hit rate 0.4% among 270,000; AID 2326; also: actives are rising curves; nearly all actives have a fitted effect of over 50% in size
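Read-out: OD600 growth recovery of NS1-expressing budding yeast. Cells grown overnight at 30C in -URA glucose medium, washed, resuspended and diluted 1:100 in 2% galactose assay medium, pH 6.0. Same strain lacking NS1 served as positive control.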
Cruzain Triton – inhibitors of Trypanosoma cruzi cruzain with detergent | purified cruzain, Z-FR-AMC fluorescence, 0.01% Triton | AID 1478 | hit rate 0.43% among 200,000 | P25779 | Potency, µM, for the others: max response, negative = inhibition, usual class: inhibitors; active = well fitted curve in the direction sought with a large enough effect; inconclusive = small, poorly fitted or top-dose-only effect, or another doubt; inactive = no such curve, though single readings can be large; an effect the other way counts as inactive or inconclusive;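 also: plate controls were neutral wells for no effect and buffer without enzyme for full effect; nearly all actives have a fitted effect of over 40% in size; top concentration of the series not given in the record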
Target sequence (P25779 123-467 limits assumed): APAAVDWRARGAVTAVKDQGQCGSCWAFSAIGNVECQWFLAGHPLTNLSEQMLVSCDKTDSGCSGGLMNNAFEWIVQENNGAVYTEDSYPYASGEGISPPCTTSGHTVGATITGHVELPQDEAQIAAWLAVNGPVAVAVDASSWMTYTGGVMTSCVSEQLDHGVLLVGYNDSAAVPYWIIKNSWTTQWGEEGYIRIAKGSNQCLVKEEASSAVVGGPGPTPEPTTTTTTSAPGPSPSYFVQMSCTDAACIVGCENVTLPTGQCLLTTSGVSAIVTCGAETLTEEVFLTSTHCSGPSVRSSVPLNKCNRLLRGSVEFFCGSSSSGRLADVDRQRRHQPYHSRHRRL
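Z-FR-AMC hydrolysis (2 uM substrate) by cruzain (1.5 nM) monitored kinetically at ex 360/em 450 nm after 15 min room-temperature compound exposure; 0.01% Triton X-100, pH 5.5, 5 mM DTT.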
2A StopGo – lowers the luciferase signal of an FMDV 2A StopGo reporter; AID 1159524; human cells with a luciferase reporter of 2A StopGo recoding; control for the full effect not named in the record; hit rate 1.2% among 410,000; Potency, µM (series often up to 57.9 µM), for the others: at the highest dose signal change, negative = less light; active = well fitted falling curve with a large enough effect; inconclusive = small, poorly fitted or top-dose-only effect; inactive = no such curve, though single readings can be large or run the other way; tested in HEK293T cells; also: % is scaled to controls: 0 for no effect and ±100 for the full control effect; nearly all actives have a fitted effect of over 45% in size; luciferase light after 4 h
MARV entry inh – blocks Marburg virus binding to or entry into cells | AID 540276 | hit rate 1.8% among 300,000 | Marburg virus pseudotyped entry inhibition, cell reporter; control for the full effect not named in the record; about a third of the inactives were read at about 46 µM | Potency, µM (doses to about 37.8 µM), for the others: top-dose activity change, negative = inhibition, hits mostly inhibitors; active = well fitted inhibition curve with a large enough effect; inconclusive = small, poorly fitted or top-dose-only effect, or effect the other way; inactive = flat fitted curve, though single readings scatter; tested in HEK293 cells; about a fifth of its hits are not listed in these tables; also: % is scaled to controls: 0 for no effect and ±100 for the full control effect; luciferase read-out
Lassa entry inh – inhibitors of Lassa virus binding or cell entry; AID 540256; Lassa virus pseudotype entry inhibition, cell reporter; control for the full effect not named in the record; hit rate 1.2% among 300,000; Potency, µM (series often up to 37.9 µM), inactives show top-dose activity change, negative = inhibition, usual class: inhibitors; active means well fitted inhibition curve with a large enough effect; inconclusive means small, poorly fitted or top-dose-only effect, or effect the other way; inactive means flat fitted curve, though single readings scatter; tested in HEK293 cells; also: % is scaled to controls: 0 for no effect and ±100 for the full control effect; nearly all actives have a fitted effect of over 50% in size; luciferase read-out
Cruzain inh noDet – blocks cruzain activity in detergent-free assay. P25779. purified cruzain, Z-FR-AMC fluorescence, no detergent. Potency, µM, for the others: max response, negative = inhibition, hits mostly inhibitors. hit rate 2.3% among 200,000; active = well fitted curve in the direction sought with a large enough effect; inconclusive = small, poorly fitted or top-dose-only effect, or another doubt; inactive = no such curve, though single readings can be large; an effect the other way counts as inactive or inconclusive;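 also: plate controls were enzyme without inhibitor for no effect and buffer without enzyme for full effect; nearly all actives have a fitted effect of over 40% in size; top concentration of the series not given in the record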
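Purified cruzain at 1.5 nM, pre-incubated 15 min with compound at room temperature in 100 mM sodium acetate pH 5.5, 5 mM DTT, 0.00005% Triton X-100. Reaction started with 2 uM Z-FR-AMC; AMC fluorescence increase over 60 s gives rate.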
RE007 growth inh – less growth of the S. pombe RE007 Vpr strain; Potency, µM (highest dose often 92.2 µM), without a hit: at the highest dose activity change, negative = less growth; S. pombe RE007 Vpr strain, BacTiter-Glo ATP luminescence, 24 h; control for the full effect not named in the record; hit rate 0.21% among 360,000; active = well fitted falling curve with a large enough effect; inconclusive = small, poorly fitted or top-dose-only effect; inactive = no such curve, though single readings can be large or run the other way;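 also: % is scaled to controls: 0 for no effect and ±100 for the full control effect; nearly all actives have a fitted effect of over 50% in size; the assay follows cell death caused by Vpr and the record does not say whether a fall means rescue or toxicity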
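Fission yeast strain RE007, carrying one chromosomally integrated HIV-1 vpr copy, was seeded at OD 0.01 in PMG+AL medium with 23 nL pinned compound. After 24 h at 30 °C and 99% humidity, viability was read by BacTiter-Glo luminescence.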
* = called active by the depositor; ? = inconclusive; nt = no result given; [ ] = another dose, or the depositor's remark. Unless noted, calls follow the shape of the dose curve; as a rule, active means well fitted rising curve with a large enough effect; inconclusive means small, poorly fitted or top-dose-only effect; inactive means no such curve, though single readings can be large or run the other way. Potency is read from the fitted curve at half-maximal effect.

SMILES	SARS PLP yeast	NS1 inh	Cruzain Triton	2A StopGo	MARV entry inh	Lassa entry inh	Cruzain inh noDet	RE007 growth inh
CCOc1ccc(N(C)S(=O)(=O)c2ccc3[nH]cc(C(=O)NCC(OC)OC)c(=O)c3c2)cc1	1%	11%	nt	?	nt	nt	nt	-2%
CCOC(=O)c1c(S(=O)(=O)NCc2cccs2)c(C)n(C)c1C	-1%	-1%	nt	41%[activator]	nt	nt	nt	4%
Cc1cc(CN(C)C)c(OC(=O)N(C)C)cc1C	2%	-4%	0.1%	-2%	-10%	-2%	-11%	0%
O=C(CCN1C(=O)c2ccccc2C1=O)Nc1ccc(F)cc1F	0%	-7%	-2.3%	23%	4%	5%	-6%	-2%
NC(=O)[C@H]1CC2(CC(c3cccc(NC(=O)[C@H]4CCC(=O)N4)c3)=NO2)CN1C(=O)c1cc([N+](=O)[O-])cc([N+](=O)[O-])c1 (stereo not given in full)	1%	-4%	nt	-17%	nt	nt	nt	-4%
Cc1cccc(OCCSc2cc(C)nc(N)n2)c1	-1%	-56%	-5.2%	-8%	-20%	2%	8%	?
CCc1ccccc1NC(=O)CC1Sc2ccc(C(F)(F)F)cc2NC1=O (stereo not given)	nt	nt	-1.1%	0%	3%[46.1 µM]	-1%[46.1 µM]	-2%	nt
COc1ccc(CNC(=O)CCc2nc(-c3ccc(C)cc3)no2)c(OC)c1	nt	nt	-5.2%	-3%	1%[46.1 µM]	-19%[46.1 µM]	5%	nt
CCOC(=O)Nc1ccc2nc(Sc3ccc(Cl)cc3)sc2c1	-1%	1%	nt	-21%	nt	nt	nt	-7%
O=C(Nc1cc([N+](=O)[O-])c2[nH]c(=O)c3ccccc3c2c1)C(F)(F)F	nt	nt	nt	-19%	-4%	19%[46.1 µM]	nt	5%
COc1cc(NC(=O)c2cccc(NC3=NC4CS(=O)(=O)CC4S3)c2)cc(OC)c1OC (stereo not given)	-4%	-4%	nt	0%	nt	nt	nt	-9%
CCCC(c1nnnn1Cc1ccc(F)cc1)N1CCN(C2CCCCC2)CC1 (stereo not given)	10%	-9%	-3.9%	-22%	8.9µM*	-6%	12%	2%
CC(C)CCNC(=O)COc1ccc(N(C)S(=O)(=O)c2ccc(F)cc2)cc1	2%	nt	nt	-6%	?	?	nt	-7%
Cc1cc(C)cc(-n2c(SCC(=O)Nc3ccccc3F)nc3c(oc4ccccc43)c2=O)c1	nt	nt	-2.7%	-16%	-27%[46.1 µM]	nt	?	nt
Cc1nc2ccccn2c1C(=O)NNC(=O)Nc1cccc(C(F)(F)F)c1	3%	-5%	nt	?	nt	nt	nt	-2%
CS(=O)(=O)Nc1nnc(SCC(=O)N(c2ccccc2)c2ccccc2)s1	-19%	14%	6.6%	-21%	?	-1%	1%	0%
COc1ccc(/C(C)=N/OC/C(O)=C(\C#N)c2nc3ccccc3[nH]2)cc1	-8%	9%	1.3%	-9%	13%	4%	5µM*	-2%
C/C=C(\C)C(=O)NCCN1C2=NC[C@H](C(C)C)N2C[C@@H]1Cc1ccc(OC)cc1	0%	0%	nt	-5%	nt	nt	nt	-1%
O=C(CNc1ccccc1Cl)c1ccc(Br)cc1	-3%	-26%	nt	28%	?	?	nt	-5%
CCC(=O)Nc1ccc(OC)cc1OC	3%	-33%	0.9%	-6%	5%	-2%	-6%	?
CC1CCCN(S(=O)(=O)c2ccc(NC(=O)CN3CCN(C)CC3)cc2)C1 (stereo not given)	4%	0%	0.2%	22%	-4%	-4%	4%	-3%
Cc1cc2occ(CC(=O)NNC(=O)c3ccccc3)c2cc1C	4%	12%	nt	25%	nt	nt	nt	-8%
CN(C(=O)COC(=O)CNC(=O)C12CC3CC(CC(C3)C1)C2)C1CCS(=O)(=O)C1 (stereo not given)	-8%	-6%	4.2%	-20%	0%	-1%	-13%	16%
CC(C)CCN1CCN(C2CCN(c3ccccc3)CC2)CC1CCO (stereo not given)	0%	0%	nt	-13%	nt	nt	nt	-18%
COC(=O)C1=C(C)N(CCCC(=O)O)C(=O)NC1c1cc2c(cc1[N+](=O)[O-])OCO2 (stereo not given)	5%	?	-7.8%	7%	4%	9%	-7%	-2%
SMILES	SARS PLP yeast	NS1 inh	Cruzain Triton	2A StopGo	MARV entry inh	Lassa entry inh	Cruzain inh noDet	RE007 growth inh
CC(C)c1nnc(NC(=O)CCCCCN2C(=O)C3C4C=CC(C4)C3C2=O)s1 (stereo not given)	1%	10%	-6.3%	-26%	2%	nt	-1%	-12%
CC(C)(C)NC(=O)NC(=O)CN1CCN(S(=O)(=O)c2ccc3c(c2)CCCC3)CC1	-1%	nt	nt	-14%	?	?	nt	2%
COc1cccc(CNC(=O)c2nc(Cn3nc(C)c(Br)c3C)no2)c1	nt	nt	-2.7%	-17%	nt	-12%[46.1 µM]	4%	nt
Cc1cccc(NC(=O)c2ccc(S(=O)(=O)N3CCCCC3)cc2)c1	11%	-23%	nt	-18%	-7%	-6%	nt	4%
Brc1ccc(C2=Nc3ccccc3C(c3ccncc3)=NN2)cc1	-2%	4%	nt	-8%	-4%	6%	nt	1%
O=C1NC(=O)N(c2ccc(Cl)cc2)C(=O)/C1=C/c1coc2ccc(O)cc2c1=O	1%	2%	nt	?	nt	nt	nt	-9%
O=C1/C(=C\c2cccc(O)c2)SC(=S)N1Cc1ccccc1	-2%	-6%	nt	0%	nt	nt	nt	-27%
C/C(=N\NC(=O)c1ccc(N(C)C)cc1)c1cccnc1	-7%	8%	nt	57%[activator]	nt	nt	nt	11%
CCOC(=O)c1oc2c(CN3CCN(CCO)CC3)c(O)c(CC)cc2c(=O)c1-c1nc2ccccc2s1	-1%	1%	nt	2%	0%[46.1 µM]	17%[46.1 µM]	nt	-10%
COc1ccc(-c2nc3scc(CCNS(=O)(=O)c4ccc(F)cc4F)n3n2)cc1OC	nt	nt	-6.5%	-18%	nt	-20%[46.1 µM]	-9%	nt
O=C(CS(=O)(=O)c1cccc(Cl)c1)Nc1ccccc1Cl	-4%	-10%	3.7%	30%	6%	2%	4%	-7%
COc1ccc(-n2cnnc2SCC(=O)N(C)C2CCS(=O)(=O)C2)cc1 (stereo not given)	12%	5%	4.3%	19%	-13%	-1%	6%	-3%
CN(C)c1ccc(CNC(=O)c2cc3ccccn3n2)cc1	nt	nt	0.8%	29%	nt	?	-17%	nt
CN(C(=O)CSc1nc(C2CC2)n(-c2ccccc2)n1)C1CCS(=O)(=O)C1 (stereo not given)	2%	nt	nt	-7%	?	?	nt	-5%
O=[N+]([O-])c1cc(Cl)ccc1N1CCN(c2ccccc2O)CC1	-15%	nt	nt	-25%	-21%[46.1 µM]	9%	nt	?
O=C(CSc1nnc(CNC(=O)c2ccc(F)cc2)o1)NCC1CCCO1 (stereo not given)	-6%	-4%	nt	-24%	14%	14%	nt	-11%
CCOC(=O)C(C)Sc1nc(=O)n2cccc(C)c2n1 (stereo not given)	-3%	nt	nt	3%	16%[46.1 µM]	?	nt	45%
C=CCC(O)c1c(-c2ccccc2)nn(C)c1Cl (stereo not given)	-4%	nt	nt	-22%	21%[46.1 µM]	?	nt	-6%
Cc1ccc(-c2c3c(=O)n(C)c(=O)n(C)c3c3c(C)nc4ccccc4n23)cc1	nt	nt	-3.3%	-12%	-1%[46.1 µM]	2%[46.1 µM]	3%	nt
COCc1cc(/C=N\NC(=O)Cc2ccc(OC)cc2)ccc1OC	11%	18%	-1.3%	3%	1%	?	1%	11%
CCOC(=O)C1CCCN(S(=O)(=O)c2ccc(Br)s2)C1 (stereo not given)	-3%	-25%	-1.2%	nt	-9%	-3%	2%	-6%
CC(=O)N1c2ccc(S(=O)(=O)NCC3CCC(C(=O)Nc4ccc(C)cc4)CC3)cc2CC1C (stereo not given)	nt	nt	1.6%	?	nt	1%[46.1 µM]	?	nt
COc1cc2cc(C#N)c(SCC(=O)N3CCOCC3)nc2cc1OC	-26%	-2%	-10.0%	9%	0%[46.1 µM]	3%	22%	-10%
CCOc1ccc(CNC(=O)CCc2cn(CC)c3ccccc23)cc1	nt	nt	-0.9%	0%	nt	-3%[46.1 µM]	6%	nt
CC(=O)c1ccc(NC(=O)C2CCCN(S(=O)(=O)c3c(C)[nH]c(=O)[nH]c3=O)C2)cc1 (stereo not given)	0%	nt	nt	-5%	16%	-5%[46.1 µM]	nt	-18%
SMILES	SARS PLP yeast	NS1 inh	Cruzain Triton	2A StopGo	MARV entry inh	Lassa entry inh	Cruzain inh noDet	RE007 growth inh
CCCCN1C2=NCCCN2c2cc(C)c(C)cc21	-1%	-9%	4.9%	0%	?	?	-2%	-9%
Cc1ccc(C)c(-n2cc(-c3ccc(Cl)cc3)nc2SCC(=O)NC2CCS(=O)(=O)C2)c1 (stereo not given)	-20%	15%	-6.6%	-14%	1%	-1%	?	3%
Cc1noc(C)c1COC(=O)c1ccc2c(c1)OCO2	1%	-45%	4.2%	-1%	0%	-10%	11%	14%
CCOC(=O)CC1C(=O)NCCN1C(=O)NC1CCCCC1 (stereo not given)	?	0%	4.1%	20%	-15%	-11%	1%	-1%
CCOC(=O)c1ccc(Nc2ncnc3ccccc23)cc1	-9%	nt	nt	15%	?	-1%[46.1 µM]	nt	-3%
COC(=O)c1ccccc1NC(=O)CSc1n[nH]c(-c2cccnc2)n1	-1%	-5%	nt	-8%	nt	?	nt	1%
COC(=O)c1cc(=O)n(CCc2ccc(OC)cc2)c(=Nc2ccc(F)c(Cl)c2)s1	0%	12%	0.3%	22µM*	-2%	nt	-20%	21%
CCn1c(-c2ccc(OC)c(OC)c2)n[nH]c1=S	-2%	4%	2.7%	-1%	8%	6%	4%	7%
COCCn1c(-c2cccs2)csc1=Nc1cccnc1	-4%	-2%	nt	22µM*	4%[46.1 µM]	4%[46.1 µM]	nt	5%
COc1ccccc1NC(=O)Nc1nn(C)c2cccc(OC)c12	-4%	-40%	nt	0%	4%[46.1 µM]	16%[46.1 µM]	nt	13%
COCCOc1ccc(C(F)(F)F)cc1NC(=O)CN1C(=O)NC(C)(c2ccc3c(c2)OCO3)C1=O (stereo not given)	nt	nt	nt	2%	?	-19%	nt	-6%
COc1ccc(OC)c2nc3c(C(=O)NCCN(C)C)cccc3nc12	nt	nt	nt	-26%	?	?	nt	-21%
